Bioassay records (PubChem)
Beta apoptosis: inhibitors of cytokine-induced beta cell apoptosis, primary screen, luminescence | hit rate 0.8% among 300,000 | INS-1E cytokine-induced death, ATP luminescence, 48 h; percent of positive-control rescue, neutral wells zero | protection from apoptosis, % (no concentration beside the values);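 active = all replicates at 75% or more, or half of them and the mean; inconclusive = half reach 75% but not the mean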;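 note: 0% = cytokine-treated negative control wells and 100% = positive control rescue; higher means more ATP so stronger rescue from cytokine killing; wells of about 40 µL received 100 nL stock; the first replicate is given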
ALR inh: inhibitors of human ALR sulfhydryl oxidase, primary screen, biochemical, H2O2 detection, HRP-luminol luminescence, single point | FAD-linked sulfhydryl oxidase ALR (Homo sapiens), P55789 | purified ALR, DTT oxidation | inhibition, % (no concentration beside the values) | hit rate 3.8% among 290,000;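 active = mean and each replicate at 75% or more; inconclusive = only one of the two met; inactive = neither met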;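 note: stock transfer was 7.5 nL into about 7.5 µL; 0% = neutral wells and 100% = wells with inactivated enzyme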
Target sequence (P55789 whole entry, looked up): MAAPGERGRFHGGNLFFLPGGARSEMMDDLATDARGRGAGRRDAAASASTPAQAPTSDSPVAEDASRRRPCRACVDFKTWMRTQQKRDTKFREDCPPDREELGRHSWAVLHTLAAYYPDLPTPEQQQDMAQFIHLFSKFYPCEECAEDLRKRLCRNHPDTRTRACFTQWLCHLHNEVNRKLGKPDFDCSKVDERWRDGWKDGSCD
FGF22 binding: binders of human FGF22 protein, primary screen, FGF22 synaptogenesis inhibitor project, biophysical, thermal shift, single point. hit rate 1.5% among 340,000. calls only at 9.99 µM. Fibroblast growth factor 22 (Homo sapiens), Q9HCT0. recombinant FGF22 thermal shift, SYPRO orange fluorescence; percent of sucrose octasulfate shift, DMSO zero. AID 651658, 2012;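 active = melting point raised past a set limit in the mean and every replicate; inconclusive = no clear call; three in four hits are not shown here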
Target sequence (Q9HCT0 whole entry, looked up): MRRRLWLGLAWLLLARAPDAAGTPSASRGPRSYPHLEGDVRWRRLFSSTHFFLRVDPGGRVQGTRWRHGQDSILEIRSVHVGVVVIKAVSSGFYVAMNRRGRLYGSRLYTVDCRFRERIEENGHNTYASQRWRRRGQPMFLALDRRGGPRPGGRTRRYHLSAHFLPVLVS
T cruzi inh: inhibitors of intracellular T. cruzi growth, primary screen, luminescence, NIH3T3 host cells. AID 1885, 2009. hit rate 1.4% among 300,000. T. cruzi beta-gal in NIH3T3, 90 h. inhibition, % (no concentration beside the values);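 active = mean inhibition across valid replicates above about 55%, limit read from the data; inconclusive = mean below that limit but half or more replicates reach it; inactive = mean below it, under half of replicates reach it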;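 note: signal also drops with host cell toxicity which is not excluded here; 0% = plate median of DMSO wells and 100% = zero luminescence signal; higher percent means less beta-gal luminescence so fewer parasites; stock transfer was 50 nL into about 50 µL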
AF4-AF9 inh: inhibitors of AF4 peptide binding to AF9, primary screen, biochemical, AlphaScreen, biotin-AF4 peptide, FLAG-AF9, single point | Protein AF-9 (Homo sapiens), P42568 | inhibition, % at 10 µM | hit rate 0.47% among 350,000 | AID 651704, 2012;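 active = every replicate reaching a set inhibition limit, whatever the replicate mean, cut at about 25% in these data; inconclusive = mean inhibition reaches that limit but some replicates miss it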;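 note: 0% = plate neutral control median and 100% = total signal loss; the record names both 10 and 1 µM as test concentration; the first replicate is given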
Target sequence (P42568 whole entry, looked up): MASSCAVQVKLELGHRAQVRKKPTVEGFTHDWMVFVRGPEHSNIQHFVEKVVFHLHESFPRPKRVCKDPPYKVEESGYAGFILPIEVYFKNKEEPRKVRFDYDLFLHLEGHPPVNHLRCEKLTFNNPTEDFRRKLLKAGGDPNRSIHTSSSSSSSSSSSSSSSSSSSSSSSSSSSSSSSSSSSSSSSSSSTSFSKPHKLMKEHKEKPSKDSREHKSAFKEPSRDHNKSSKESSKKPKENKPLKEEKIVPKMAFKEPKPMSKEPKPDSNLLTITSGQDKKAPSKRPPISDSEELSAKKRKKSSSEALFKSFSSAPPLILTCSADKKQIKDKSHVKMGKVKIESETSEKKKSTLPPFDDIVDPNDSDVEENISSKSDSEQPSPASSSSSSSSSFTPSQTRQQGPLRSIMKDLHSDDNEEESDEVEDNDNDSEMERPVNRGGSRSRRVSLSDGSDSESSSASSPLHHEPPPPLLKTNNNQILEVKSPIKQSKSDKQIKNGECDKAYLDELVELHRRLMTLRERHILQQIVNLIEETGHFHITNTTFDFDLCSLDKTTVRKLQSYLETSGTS
Ecoli rRNA inh: reduced GFP signal of wild-type E. coli, primary screen, bacterial rRNA inhibitor project, GFP/RFP fluorescence, OD600, single point; E. coli WT GFP vs humanized-ribosome RFP mutants, 24 h; stronger effect = lower value; DMSO median 0, no signal -100; GFP signal change (wild-type ribosome), % (test concentration not listed); hit rate 1.6% among 350,000; AID 720706, 2013;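 active = significant combined selectivity score with lowered wild-type GFP, culture density cut under 30%, mutant RFP and density less affected; inactive = any of these conditions unmet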; note: one replicate is shown; some compounds called inactive have numbers as strong as hits
Calb FLC: C. albicans growth inhibition with fluconazole, primary screen, CaCi-2 strain, Alamar Blue fluorescence; C. albicans CaCi-2 (fluconazole-resistant clinical isolate) + fluconazole, 48 h; growth inhibition, % (concentration not given with the values); hit rate 0.57% among 300,000;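 active = most replicates above 75%; inconclusive = exactly half above 75%; inactive = most below 75%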;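 note: all wells also contain fluconazole at 8 µg/ml as a sub-toxic cotreatment; 0% = median of DMSO wells and 100% = median of geldanamycin control wells; wells of about 8 µL received 7.5 nL stock; the first replicate is given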
RanGTP-Imp inh: inhibitors of RanGTP-importin-beta interaction, primary screen, biochemical, FRET, CFP-Ran, YFP-importin-beta, homogeneous. Ran GTPase (GTP-bound) - importin-beta complex. hit rate 1.1% among 300,000. cell-free CFP-Ran/YFP-importin-beta FRET ratio. inhibition, % (concentration not given with the values). AID 2216, 2009;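 active = most replicates above 15%; inconclusive = exactly half above 15%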;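 note: 0% = DMSO wells and 100% = Ran loaded with GDP instead of GTP; wells of about 40 µL received 100 nL stock; the first replicate is given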
Ecoli rRNA inh OD600: also measured in Ecoli rRNA inh; calls as there; OD600 change, %; measured here: OD600 growth;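 optical density of the mix in the first replicate; 0 = DMSO median and -100 = no signal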
Ecoli rRNA inh RFP: further read-out of Ecoli rRNA inh, marked with its call; RFP signal change, %; measured here: RFP humanized mutant strains;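 first replicate; 0 = DMSO median and -100 = no signal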
Numbers without * were called inactive; i = inactive; ? = inconclusive; · = not tested or not shown. The list is partial. The share of hits here may be higher or lower than overall.

SMILES	ALR inh	T cruzi inh	FGF22 binding	AF4-AF9 inh	Beta apoptosis	Ecoli rRNA inh	Ecoli rRNA inh OD600	Calb FLC	Ecoli rRNA inh RFP	RanGTP-Imp inh
O=C(Nc1nccs1)C1CC(=O)N(CCc2ccc(F)cc2)C1 (stereo not drawn)	4	8	i	-3.4	-1	23	9	3	7.8	0.9
COc1ccccc1C(=O)NC1CC(C)(C)NC(C)(C)C1	·	0	·	-0.8	-4	15	9	-3	-1.6	-2.6
Cc1cc(C)cc(Oc2ccc(N)cc2)c1	98*	4	·	·	-7	·	·	-12	·	1.0
CC(=O)Oc1cccc(N2C(=O)c3ccc(C(=O)O)cc3C2=O)c1	7	-9	·	·	4	·	·	-6	·	-0.8
Cc1ccc(C)c(SCC(=O)c2ccc[nH]2)c1	0	-6	i	1.6	-8	-42	-60	-28	-5.9	-2.2
CC(=O)N1c2ccc(S(=O)(=O)N3CCC(C(=O)Nc4cccc(F)c4)CC3)cc2CC1C (stereo not drawn)	0	0	i	3.1	25	0	2	-8	-0.4	0.1
COc1ccc(Cn2c(=O)c3cccnc3n(Cc3ccc([N+](=O)[O-])cc3)c2=O)cc1	0	9	i	0.0	24	5	11	39	-0.7	?
CSc1cccc(NS(=O)(=O)c2cn(C)cn2)c1	-1	-11	i	1.0	-6	22	20	-8	0.4	3.6
Cc1onc(-c2ccccc2)c1C(=O)NNC(=S)NC(=O)c1ccc(F)cc1	93*	-4	i	-3.3	5	-49	-76	21	-32	-4.4
N#CCNC1CC(=O)N(c2ccc(F)cc2)C1=O (stereo not drawn)	-4	-1	i	-3.4	-4	9	-2	-15	1.0	-2.0
Clc1cccc(OCCCN2CCCC2)c1Cl	-34	39	i	0.4	-6	11	-1	-13	4.6	0.8
O=C(NC1CCCC1)C1CCN(S(=O)(=O)c2cccc3cccnc23)CC1	-4	-10	·	·	-2	·	·	-12	·	2.4
CC12CCC(C(=O)NCc3ccccc3Cl)(CC1=O)C2(C)C (stereo not drawn)	1	-4	i	-0.5	3	2	-1	2	1.1	0.2
CCN(CC)CCCN1C(=O)C2C(C(=O)Nc3ccc(C(C)C)cc3)C3C=CC2(O3)C1C(=O)NC1CCCCC1 (stereo not drawn)	3	9	i	4.3	-1	1	5	-2	-0.1	2.0
CCOc1ccc(NC(=O)C/C(C)=N/NC(=O)Cc2cccs2)cc1	-4	9	i	2.5	-5	2	3	-2	2.9	-1.5
COc1cccc(C(=O)CN2CCN(S(=O)(=O)c3ccc(Br)cc3)CC2)c1	-2	13	·	·	-1	·	·	-1	·	-4.7
COc1ccc(-c2noc(CCC(=O)NCCN(C)Cc3ccccc3)n2)cc1	3	22	·	·	-6	·	·	-13	·	-0.7
CC1=NN(c2nc(C)cc(C)n2)C(=O)C1CCC(C)C (stereo not drawn)	2	·	·	·	-1	·	·	16	·	-0.9
COc1cc2[nH]c(=S)n(C3CC3)c(=O)c2cc1OC	-1	3	i	-4.0	1	-3	1	-13	-2.2	?
CSc1nnc(NC(=O)c2ccc3c(c2)OCO3)s1	-14	1	i	-3.1	2	25	15	-1	2.0	1.1
COc1ccc(N2CCN(C(=O)c3ccccc3)CC2)c([N+](=O)[O-])c1	4	5	i	6.9	5	-23*	-4.9*	11	0.3*	3.2
CCOC(=O)CSc1nc(=O)n2cc(C)ccc2n1	-3	-5	i	0.8	-9	20	18	-1	0.7	-1.6
CN(CCOc1ccccc1)CC(=O)Nc1cccc(Br)c1	-29	18	i	-3.2	-5	-52	-78	-15	-12	0.8
O=C(NCc1ccc2c(c1)OCO2)c1cccnc1	·	-2	·	·	5	·	·	-5	·	1.3
CCOc1ccc(C2C(C(C)=O)=C(O)C(=O)N2CCc2c[nH]c3ccccc23)cc1 (stereo not drawn)	-4	12	·	2.5	-2	-4	-8	-17	-1.0	5.4
N/C(Cc1nc(-c2ccc(Cl)cc2)cs1)=N/O	4	44	i	·	·	-33	-8	-4	17	5.0
CCN(CC)CCC(c1ccc2c(c1)OCO2)c1c(OC)cc(OC)c2ccc(=O)oc12 (stereo not drawn)	-6	-1	i	5.5	5	8	-6	-22	-3.0	-0.1
COC(=O)CNC(=O)C(C)NC(=O)OCc1ccccc1 (stereo not drawn)	·	-10	·	·	-3	·	·	-17	·	1.4
CCOC(=O)N/N=C(\C)c1ccc(-n2cnnn2)cc1	-7	4	i	0.8	-2	13	10	-5	4.3	0.6
COc1ccc(C)c2sc(N(CCN(C)C)C(=O)c3ccc4ccccc4c3)nc12	-8	-4	i	29*	-3	-9	-2	-31	2.9	2.7

Random excerpt: five records from the list.
SMILES	ALR inh	T cruzi inh	FGF22 binding	AF4-AF9 inh	Beta apoptosis	Ecoli rRNA inh	Ecoli rRNA inh OD600	Calb FLC	Ecoli rRNA inh RFP	RanGTP-Imp inh
O=C(NC1CCCC1)C1CCN(S(=O)(=O)c2cccc3cccnc23)CC1	-4	-10	·	·	-2	·	·	-12	·	2.4
CCOC(=O)CSc1nc(=O)n2cc(C)ccc2n1	-3	-5	i	0.8	-9	20	18	-1	0.7	-1.6
COC(=O)CNC(=O)C(C)NC(=O)OCc1ccccc1 (stereo not drawn)	·	-10	·	·	-3	·	·	-17	·	1.4
CCN(CC)CCC(c1ccc2c(c1)OCO2)c1c(OC)cc(OC)c2ccc(=O)oc12 (stereo not drawn)	-6	-1	i	5.5	5	8	-6	-22	-3.0	-0.1
COc1ccc(N2CCN(C(=O)c3ccccc3)CC2)c([N+](=O)[O-])c1	4	5	i	6.9	5	-23*	-4.9*	11	0.3*	3.2

Following part
SMILES	ALR inh	T cruzi inh	FGF22 binding	AF4-AF9 inh	Beta apoptosis	Ecoli rRNA inh	Ecoli rRNA inh OD600	Calb FLC	Ecoli rRNA inh RFP	RanGTP-Imp inh
Cc1cs/c(=N\N=C2CCCCC2)n1Cc1ccco1	96*	-13	·	11	-1	12	-1	1	9.9	-2.4
CCOC(=O)N1CCN(c2nc3ccccc3nc2C(C#N)S(=O)(=O)c2ccc(C)cc2)CC1 (stereo not drawn)	20	4	·	·	20	·	·	-2	·	7.4
COc1ccc(/C=N/NC(=O)c2csc(-n3nc(C)cc3C(F)(F)F)n2)cc1	-7	-7	·	·	1	·	·	?	·	3.7
CN(CC(=O)Nc1ccc(Cl)c(C(F)(F)F)c1)C(=O)Cc1ccsc1	-12	2	i	5.6	2	2	-9	-11	13	1.9
NC(=O)c1cccc2c1-c1ccccc1/C2=N/NC(N)=S	17	2	i	-1.3	5	-8	-7	1	4.5	-4.2
CCCCNC(=O)NNC(=O)c1ccco1	25	-6	i	1.2	-4	3	17	-1	0.8	1.8
Cc1ccc(NC(=O)c2csnn2)c(C)c1	9	-2	·	·	2	·	·	-1	·	-2.8
COc1ccccc1NC(=O)N(Cc1cccs1)Cc1cc2cc3c(cc2[nH]c1=O)OCO3	-3	14	·	·	1	·	·	-12	·	0.3
CC(CC(=O)Nc1cccnc1)c1ccccc1 (stereo not drawn)	-5	-12	i	-0.7	3	0	1	-10	-0.9	-1.8
Cc1cccc(N2CCN(C(=O)CCC(=O)N3Cc4ccccc4Oc4ncccc43)CC2)c1C	-17	10	i	47*	-1	-25	-57	29	-0.2	1.7
CCc1nnc(NC(=O)c2ccc(-c3cc(C(F)(F)F)ccc3Cl)o2)s1	-3	-16	·	·	0	·	·	-4	·	-3.1
Cc1cccc(Nc2nnc(SCC(=O)NC(=O)CN3CCCC3=O)s2)c1	26	·	i	-1.0	-3	4	2	·	2.8	·
CCOc1ccc(S(=O)(=O)N2CCN(S(=O)(=O)c3ccc(C(C)=O)cc3)CC2)cc1	-7	-9	i	-1.0	-5	0	0	10	-0.5	3.7
COc1ccccc1CCNC(=O)CC1C(=O)NCCN1CCCc1ccccc1 (stereo not drawn)	2	5	i	3.4	-5	-32	-42	-8	-9.6	2.0
O=C(CCn1c(=O)sc2ccccc21)NCCC1=CCCCC1	·	3	i	2.4	-4	3	4	27	-0.5	1.4
CC(C)(C)OC(=O)C[C@@H]1C/C=C\C[C@@H](CC(=O)N[C@H](CO)Cc2ccccc2)C(=O)NC[C@@H](c2ccccc2)OC1=O	-1	·	i	-9.1	7	-5	-8	·	-2.2	·
Cc1cccc(NC(=O)NNC(=O)c2cc3ccccc3cc2O)c1C	-9	-31	i	-3.1	-2	7	-1	65*	-1.2	-4.3
Nc1nc2ccc([N+](=O)[O-])cc2[nH]1	0	6	i	-1.1	·	6	9	3	-3.1	-1.2
COc1ccccc1NC(=S)N1CCN(C(c2ccccc2)c2ccccc2)CC1	-6	18	i	3.7	-4	6	1	-47	-6.3	3.1
